High-throughput results deposited in PubChem by National Center for Advancing Translational Sciences (NCATS).
TRPV1 PAM – HTS Assay for Compounds that Act as Potentiators of the Vanilloid Receptor 1; Transient receptor potential cation channel subfamily V member 1 (Homo sapiens), Q8NER1; TRPV1-expressing cells, Fluo-8 calcium influx, capsaicin EC20 potentiation; host cell line not named in the record; control for the full effect not named in the record; potentiation, % at 8.33 µM; hit rate 0.02% among 320,000; AID 540277, 2011; active means potentiation above 80%; inconclusive means 30% to 80%; inactive means below 30%; note: 0% is about no effect
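TRPV1-expressing cells were cultured overnight at 35.5C and loaded with Fluo-8 calcium dye for 40 to 90 min at room temperature. After a 10 s baseline, compound was added and calcium influx was read kinetically for 3 min (ex 480/em 520 nm).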
CtBP-E1A blk – qHTS Assay for Inhibitors of the CtBP/E1A Interaction | CtBP / adenovirus E1A interaction (AlphaScreen) | AlphaScreen GST-E1A/His-CtBP binding, 1536-well; stronger effect = lower value; control for the full effect not named in the record | activity change, % (no concentration beside the values) | hit rate 0.49% among 340,000 | AID 651724, 2012; in the data active means activity change below about -65%; inconclusive means about -30% to -65%; inactive means above about -30%; note: % is set by controls: 0 for no effect and ±100 for the full control effect; compound concentration not given in the record
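Protein mix (5X: 125 nM each GST-E1A, His-CtBP) was incubated with pinned compound 2 h at 37 deg C in dark, in 50 mM Tris pH 8.0 buffer with 300 mM NaCl. Glutathione donor and nickel acceptor beads followed; AlphaScreen signal read after 1 h.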
TRPML1 agonist – qHTS for Agonists of the Human Mucolipin Transient Receptor Potential 1 (TRPML1); TRPML1-expressing cells, Ca2+ dye fluorescence, FDSS; host cell line not named in the record; reference of the full effect not given here; activation, % (test concentration not listed); hit rate 0.12% among 410,000; Mucolipin-1 (Homo sapiens), Q9GZU1; in the data active = activation above about 50%; inconclusive = about 30% to 50%; inactive = below about 30%; note: 0% is about no effect; the text of the record puts the active cut at 80%
Target sequence (Q9GZU1 whole entry, looked up): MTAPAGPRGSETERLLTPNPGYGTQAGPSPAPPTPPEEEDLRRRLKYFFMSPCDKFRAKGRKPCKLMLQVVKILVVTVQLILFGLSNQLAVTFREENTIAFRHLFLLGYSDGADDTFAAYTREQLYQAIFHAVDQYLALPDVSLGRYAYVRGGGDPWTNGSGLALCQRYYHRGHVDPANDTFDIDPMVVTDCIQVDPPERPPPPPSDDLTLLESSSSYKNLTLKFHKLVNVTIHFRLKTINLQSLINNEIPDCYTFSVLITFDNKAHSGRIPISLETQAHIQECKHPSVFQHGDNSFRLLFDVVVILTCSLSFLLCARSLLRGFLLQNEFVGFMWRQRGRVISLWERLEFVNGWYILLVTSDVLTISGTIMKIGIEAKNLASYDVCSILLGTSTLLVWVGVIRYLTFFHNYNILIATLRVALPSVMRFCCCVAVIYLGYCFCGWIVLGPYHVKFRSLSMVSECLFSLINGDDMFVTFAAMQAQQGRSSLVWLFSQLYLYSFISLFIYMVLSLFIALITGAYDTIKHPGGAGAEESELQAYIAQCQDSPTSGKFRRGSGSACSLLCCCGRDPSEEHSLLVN
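Tet-induced TRPML1-DL cells, 1,500 per well, cultured overnight, were loaded with a no-wash Ca2+ dye for 45–90 min. Calcium fluorescence was recorded on the FDSS for 110 s after compound addition, before the EC80 agonist (4 uM 54-4) was added.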
D2 potentiator – Beta-Arrestin HTS for Positive Allosteric Modulators of the Human D2 Dopamine Receptor: Potentiators; hit rate 0.23% among 360,000; AID 624464, 2012; DiscoveRx D2 beta-arrestin cells, luminescence, 90 min; 100% = 57 uM dopamine signal; potentiation, % (no concentration beside the values); active = potentiation of 50% or more; inconclusive = 30% to 50%; inactive = 30% or less;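 note: compound concentration not given in the record; tested on top of an EC20 dose of dopamine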
Target sequence (P14416 whole entry, looked up): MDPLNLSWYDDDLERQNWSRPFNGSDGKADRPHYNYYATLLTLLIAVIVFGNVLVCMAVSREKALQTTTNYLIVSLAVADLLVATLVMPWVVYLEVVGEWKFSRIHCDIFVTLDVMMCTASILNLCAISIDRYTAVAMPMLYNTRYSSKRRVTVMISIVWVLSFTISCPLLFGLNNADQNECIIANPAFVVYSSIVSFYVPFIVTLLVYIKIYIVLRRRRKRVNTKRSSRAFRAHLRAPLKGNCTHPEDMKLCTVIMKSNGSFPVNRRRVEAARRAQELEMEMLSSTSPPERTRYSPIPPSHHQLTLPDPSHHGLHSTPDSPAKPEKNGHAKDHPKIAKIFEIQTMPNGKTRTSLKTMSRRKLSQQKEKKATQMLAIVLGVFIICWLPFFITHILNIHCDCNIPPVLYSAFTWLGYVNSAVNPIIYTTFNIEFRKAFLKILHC
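PathHunter D2 cells, attached overnight at 37 deg C, received compound in DMSO plus dopamine at EC20 (50 nM final) for 90 min at 37 deg C. Beta-arrestin recruitment was read as luminescence after 1 h with detection reagent at ambient temperature.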
Six1-Eya2 inh – qHTS Assay for Inhibitors of the Six1/Eya2 Interaction; hit rate 0.56% among 360,000; AID 651725, 2012; Homeobox protein SIX1 (Homo sapiens) + Protein phosphatase EYA2 (Homo sapiens), …; activity change, % (no concentration beside the values); AlphaScreen GST-Six1/His-Eya2 binding, biochemical; stronger effect = lower value; control for the full effect not named in the record; in the data active = activity change below about -65%; inconclusive = about -30% to -65%; inactive = above about -30%; note: % is set by controls: 0 for no effect and ±100 for the full control effect; compound concentration not given in the record
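AlphaScreen luminescence read after one hour at 37 °C in darkness. Pin-transferred compounds met GST-Six1 and His-Eya2 protein (5X stock 250 nM/500 nM) plus glutathione donor and Ni-chelate acceptor beads (5X, 50 ug/mL).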
TRPML1 inh – qHTS for Inhibitors of the Human Mucolipin Transient Receptor Potential 1 (TRPML1) | Mucolipin-1 (Homo sapiens), Q9GZU1 | TRPML1-inducible cells, Ca2+ dye fluorescence, FDSS; stronger effect = lower value; inhibition of EC80 agonist-evoked calcium signal | activity change, negative = inhibition, % (test concentration not listed) | hit rate 0.02% among 390,000; in the data active means activity change below about -50%; inconclusive means about -30% to -50%; inactive means above about -30%;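 note: stimulus is agonist 54-4 at its EC80 concentration; % is set by controls: 0 for no effect and ±100 for the full control effect; compound concentration not given in the record; the text of the record puts the active cut at -80%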
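Calcium fluorescence in TRPML1-DL cells induced overnight with Tet: a 110 s read after compound pin addition, then a 110 s antagonist read after challenge with 54-4 at 4 uM final (EC80).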
* marks the source's active call; other numbers are inactive results. No enrichment for hits; 0.95% or so of the library scored in one or more.

A first look, 3 compounds:
O=C(Nc1ccc(Cl)cc1)N1CCSCC1 was read as TRPV1 PAM -23, CtBP-E1A blk 6, TRPML1 agonist 0.7, D2 potentiator -20, Six1-Eya2 inh 6 and TRPML1 inh 1.
For CC1(C)CC(=O)N(CC(=O)NCc2ccccc2)c2ccccc2S1(=O)=O the results were TRPV1 PAM inconclusive, CtBP-E1A blk 5, TRPML1 agonist 0.4, D2 potentiator -2, Six1-Eya2 inh 0 and TRPML1 inh 21.
For CCn1nc(NS(=O)(=O)c2ccc(F)cc2)c2cc3cccc(C)c3nc21 the results were TRPV1 PAM 12, CtBP-E1A blk -8, TRPML1 agonist -1.2, D2 potentiator -12, Six1-Eya2 inh -7 and TRPML1 inh 4.

This part in full, from the start:
O=C(Nc1ccc(Cl)cc1)N1CCSCC1 was read as TRPV1 PAM -23, CtBP-E1A blk 6, TRPML1 agonist 0.7, D2 potentiator -20, Six1-Eya2 inh 6 and TRPML1 inh 1.
For CC1(C)CC(=O)N(CC(=O)NCc2ccccc2)c2ccccc2S1(=O)=O the results were TRPV1 PAM inconclusive, CtBP-E1A blk 5, TRPML1 agonist 0.4, D2 potentiator -2, Six1-Eya2 inh 0 and TRPML1 inh 21.
For CCn1nc(NS(=O)(=O)c2ccc(F)cc2)c2cc3cccc(C)c3nc21 the results were TRPV1 PAM 12, CtBP-E1A blk -8, TRPML1 agonist -1.2, D2 potentiator -12, Six1-Eya2 inh -7 and TRPML1 inh 4.
`Cc1ccccc1CN1CCC(n2nccc2NC(=O)c2cccnc2)CC1` gave TRPV1 PAM -16, CtBP-E1A blk 7, TRPML1 agonist 0.1, D2 potentiator -32, Six1-Eya2 inh -2 and TRPML1 inh 27.
CSc1nc(=S)cc(C)[nH]1 was read as TRPV1 PAM -6, CtBP-E1A blk 3, TRPML1 agonist -0.6, D2 potentiator -1, Six1-Eya2 inh -4 and TRPML1 inh -5.
O=C(Nc1ccccc1Cl)c1cc(C2CCCN(C(=O)c3ccccc3)C2)on1 (stereo not drawn) was read as CtBP-E1A blk -7, TRPML1 agonist -0.7, D2 potentiator -4 and Six1-Eya2 inh 1.
Screening NS(=O)(=O)c1ccc(N/N=C/c2cn(-c3ccccc3)nc2-c2cccs2)cc1 returned TRPV1 PAM 15, CtBP-E1A blk -14, TRPML1 agonist 1.1, D2 potentiator inconclusive, Six1-Eya2 inh -14 and TRPML1 inh 8.
CC(C)N1CCc2c(sc(NC(=O)CCS(=O)(=O)c3ccccc3)c2C#N)C1 was read as TRPV1 PAM -3, CtBP-E1A blk -2, TRPML1 agonist 0.4, D2 potentiator -3, Six1-Eya2 inh 8 and TRPML1 inh -5.
O=C(NCCCNc1ccc([N+](=O)[O-])cc1Cl)c1ccccc1F was read as TRPV1 PAM -9, CtBP-E1A blk -8, TRPML1 agonist 0.0, D2 potentiator -10, Six1-Eya2 inh -1 and TRPML1 inh 13.
`N#Cc1cc2c(=O)n3ccccc3nc2n(Cc2ccco2)c1=NC(=O)c1ccco1` gave TRPV1 PAM 8, CtBP-E1A blk inconclusive, TRPML1 agonist 7.2, D2 potentiator -5, Six1-Eya2 inh -29 and TRPML1 inh -2.
Cn1c(=O)c2c(ncn2CC(=O)OCC(=O)Nc2cccc(Cl)c2)n(C)c1=O was read as TRPV1 PAM 5, CtBP-E1A blk 0, TRPML1 agonist 0.5, D2 potentiator -1, Six1-Eya2 inh 1 and TRPML1 inh -3.
For Cc1ccn(CCC(=O)N2CCCC(N3CCN(c4ccccc4C)CC3)C2)n1 (stereo not drawn) the results were CtBP-E1A blk 29, TRPML1 agonist -0.3, D2 potentiator -27, Six1-Eya2 inh 23 and TRPML1 inh 1.
Cc1ccc(CNC(=O)C2CCN(S(=O)(=O)c3ccc4c(c3)OCCCO4)CC2)cc1 was read as TRPV1 PAM 0, CtBP-E1A blk 0, TRPML1 agonist 1.9, D2 potentiator 0, Six1-Eya2 inh 5 and TRPML1 inh -5.
`Cn1c(=O)c2c(nc(SCCN3CCCCC3)n2C)n(C)c1=O` gave TRPV1 PAM 1, CtBP-E1A blk 8, TRPML1 agonist 0.1, D2 potentiator -7, Six1-Eya2 inh 5 and TRPML1 inh -11.
CCC(C)Nc1nc(N)c([N+](=O)[O-])c(NC2CCCCC2)n1 (stereo not drawn) was read as TRPV1 PAM -1, CtBP-E1A blk 5, TRPML1 agonist 0.9, D2 potentiator -6, Six1-Eya2 inh 3 and TRPML1 inh 7.

Quoted at random: three records from the list, in no set order.
CCC(C)Nc1nc(N)c([N+](=O)[O-])c(NC2CCCCC2)n1 (stereo not drawn) was read as TRPV1 PAM -1, CtBP-E1A blk 5, TRPML1 agonist 0.9, D2 potentiator -6, Six1-Eya2 inh 3 and TRPML1 inh 7.
For Cc1ccn(CCC(=O)N2CCCC(N3CCN(c4ccccc4C)CC3)C2)n1 (stereo not drawn) the results were CtBP-E1A blk 29, TRPML1 agonist -0.3, D2 potentiator -27, Six1-Eya2 inh 23 and TRPML1 inh 1.
`Cn1c(=O)c2c(nc(SCCN3CCCCC3)n2C)n(C)c1=O` gave TRPV1 PAM 1, CtBP-E1A blk 8, TRPML1 agonist 0.1, D2 potentiator -7, Six1-Eya2 inh 5 and TRPML1 inh -11.

Later entries.
COc1ccc(N2CCN(S(=O)(=O)c3cc4c(cc3C)N(C(C)=O)CCO4)CC2)cc1 was read as TRPV1 PAM 14, CtBP-E1A blk -12, TRPML1 agonist -0.8, D2 potentiator 0, Six1-Eya2 inh -5 and TRPML1 inh -2.
For Cc1ccccc1-c1nc2cc(Cl)ccc2c(=O)o1 the results were TRPV1 PAM 10, TRPML1 agonist -0.6, D2 potentiator -6, Six1-Eya2 inh -1 and TRPML1 inh 1.
Screening COc1ccc(NC(=O)c2ccc(-c3ccccc3)cc2)cc1S(=O)(=O)N1CCOCC1 returned TRPV1 PAM -4, CtBP-E1A blk 3, TRPML1 agonist 2.0, D2 potentiator -2, Six1-Eya2 inh 20 and TRPML1 inh -7.
Cn1c(CNC(=O)OC(C)(C)C)n[nH]c1=S was read as TRPV1 PAM 2, CtBP-E1A blk 10, TRPML1 agonist -0.2, D2 potentiator -4, Six1-Eya2 inh 5 and TRPML1 inh 45.
Screening COCCN(C(=S)Nc1ccc(OC)c(Cl)c1)C1CCN(C(C)=O)CC1 returned CtBP-E1A blk -24, TRPML1 agonist -0.5, D2 potentiator -13, Six1-Eya2 inh 8 and TRPML1 inh -11.
`CC(C)CNC(=S)N(CCCO)Cc1cc2cc3c(cc2[nH]c1=O)OCCO3` gave TRPV1 PAM -19, D2 potentiator 18 and Six1-Eya2 inh 8.
`COc1ccc(C)cc1NC(=O)N1CCC(CO)(CC2CCCCO2)CC1` (stereo not drawn) gave TRPV1 PAM -3, CtBP-E1A blk 6, TRPML1 agonist -0.4, D2 potentiator -1, Six1-Eya2 inh 0 and TRPML1 inh 15.
For CCOC(=O)[C@]12CCC=C1N(CCC1=CCCCC1)C(=O)[C@H](CC(=O)NCc1ccc(OC)c(OC)c1)C2 the results were CtBP-E1A blk 1, TRPML1 agonist -0.9 and Six1-Eya2 inh -5.
`Cc1cccc(NC(=O)c2cc3c(n(-c4ccccc4)c2=O)CCCC3=O)n1` gave TRPV1 PAM 5, CtBP-E1A blk 2, TRPML1 agonist 0.3, D2 potentiator -7, Six1-Eya2 inh -3 and TRPML1 inh 6.
Screening COc1cc(/C=C(\C#N)c2nc3ccccc3n2C)cc(OC)c1O returned TRPV1 PAM inconclusive, CtBP-E1A blk -10, TRPML1 agonist 59*, D2 potentiator -11, Six1-Eya2 inh -9 and TRPML1 inh -22.
CCCOc1c(OC)cccc1C1CC(=O)Nc2cc3c(cc21)OCCO3 (stereo not drawn) was read as TRPV1 PAM -16, CtBP-E1A blk -3, TRPML1 agonist 1.3, D2 potentiator -3, Six1-Eya2 inh -14 and TRPML1 inh 8.
For CC(Sc1ccccc1)C(=O)N(CCC#N)Cc1cccnc1 (stereo not drawn) the results were TRPV1 PAM -4, CtBP-E1A blk -1, TRPML1 agonist -0.4, D2 potentiator 5, Six1-Eya2 inh 6 and TRPML1 inh 30.
For CC(Oc1ccccc1F)C(=O)NCCN1CCCCC1 (stereo not drawn) the results were TRPV1 PAM 6, CtBP-E1A blk 3, TRPML1 agonist -0.4, D2 potentiator -6, Six1-Eya2 inh 2 and TRPML1 inh 9.
c1ccc(C(c2ccccc2)N2CCN(c3ccc4ccccc4n3)CC2)cc1 was read as TRPV1 PAM 0, CtBP-E1A blk -5, TRPML1 agonist -0.7, D2 potentiator -8, Six1-Eya2 inh 1 and TRPML1 inh -5.
For CCN(CC(=O)Nc1c(F)cccc1F)C(=O)c1ccc(-c2ccccc2)cc1 the results were TRPV1 PAM 7, CtBP-E1A blk 1, TRPML1 agonist -0.7, D2 potentiator 25, Six1-Eya2 inh -1 and TRPML1 inh -6.
Screening CCn1cc(/C=N/NS(=O)(=O)c2ccc(OC)cc2)c(C)n1 returned TRPV1 PAM 2, CtBP-E1A blk 1, TRPML1 agonist -0.8, D2 potentiator -3, Six1-Eya2 inh 3 and TRPML1 inh -8.
COc1cc2nc(-c3ccc(Br)o3)oc(=O)c2cc1OC was read as TRPV1 PAM 12, CtBP-E1A blk 0, TRPML1 agonist 0.7, D2 potentiator 1, Six1-Eya2 inh 8 and TRPML1 inh 8.
`Cc1ccc(C2Nc3cccc4cccc(c34)N2)cc1` gave TRPV1 PAM inconclusive, CtBP-E1A blk -19, TRPML1 agonist 0.0, D2 potentiator 3, Six1-Eya2 inh -2 and TRPML1 inh 8.
`CN(C)CC/C=C1/c2cc(F)ccc2Sc2ccc(Cl)cc21` gave CtBP-E1A blk -24, TRPML1 agonist 0.0, D2 potentiator -24, Six1-Eya2 inh -25 and TRPML1 inh 1.
`Cc1ccc2c(CN3CCN(CCO)CC3)cc(=O)oc2c1` gave TRPV1 PAM 1, CtBP-E1A blk 5, TRPML1 agonist -0.8, D2 potentiator -18, Six1-Eya2 inh 6 and TRPML1 inh 30.
For CCOC(=O)C1CCN(CC(O)COC(CC)c2ccccc2)CC1 (stereo not drawn) the results were TRPV1 PAM 7, TRPML1 agonist 3.1, D2 potentiator -9, Six1-Eya2 inh 5 and TRPML1 inh 6.
CS(=O)(=O)c1ccc(Cl)c(NC(=O)CN2CCN(S(=O)(=O)/C=C/c3ccccc3)CC2)c1 was read as TRPML1 agonist 0.2, D2 potentiator 4, Six1-Eya2 inh -1 and TRPML1 inh -1.
